Screening results deposited in PubChem by Broad Institute.
UUG fidelity = yeast start codon fidelity modulation; S. cerevisiae UUG-firefly luciferase reporter, luminescence/redox ratio; activity score, % at 18.7 µM; actives 0.13% (n = 350,000); AID 602363;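 active = replicate mean at a twofold rise or more, about +100% in these data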;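 also: firefly luciferase made from a UUG start codon reports start codon fidelity; reporter light over untreated wells divided by growth signal over untreated wells; some hits fall short of that in this replicate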
Env fusion inh = inhibitors of HIV Env-mediated cell fusion; inhibition, % at 12.3 µM; HeLa-JRFL Env/CEM21 cell fusion, luciferase; AID 651610; actives 1.1% (n = 360,000);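 active = mean replicate inhibition score of at least 50 and every replicate individually at or above 50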;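 also: 0% = plate neutral controls and 100% = maraviroc near 300 nM; one replicate is shown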
Active calls of the source: *; [ ] = remark or other dose. The list is partial, so the mix of outcomes need not match the whole.

SMILES | UUG fidelity | Env fusion inh
CCCN1C[C@H](C)[C@@H](OC)CN(C)C(=O)c2ccc(NC(=O)C3CCC3)cc2OC[C@H]1C | -14 | -14[16.7 µM]
C[C@@H]1CN([C@H](C)CO)C(=O)c2cccc(NC(=O)c3cnccn3)c2O[C@@H]1CN(C)Cc1ccc(Oc2ccccc2)cc1 | -2 | 15[16.7 µM]
C[C@@H]1CN([C@H](C)CO)C(=O)c2cc(C3=CCCC3)cnc2O[C@@H]1CN(C)C(=O)c1cccnc1 | -11 | -7[16.7 µM]
CN1C(=O)c2cc(NC(=O)c3ccc(F)cc3)ccc2OC[C@@H]2O[C@@H](CC(=O)NCC3CCCCC3)CC[C@H]21 | 29 | 6[16.7 µM]
CNC[C@H]1OCCCC[C@H](C)Oc2ccc(N(C)C)cc2C(=O)N([C@H](C)CO)C[C@@H]1C | 43 | -3[16.7 µM]
CC(C)NC(=O)N(C)C[C@H]1Oc2c(NC(=O)NC3CCCCC3)cccc2C(=O)N([C@@H](C)CO)C[C@H]1C | 7 | 2[16.7 µM]
CCS(=O)(=O)Nc1ccc2c(c1)C(=O)N(C)[C@@H]1CC[C@@H](CC(=O)N3CCCCC3)O[C@@H]1CO2 | 8 | 8[16.7 µM]
CN1CCN(C(=O)C[C@H]2C=C[C@@H](NC(=O)Cc3ccccn3)[C@H](CO)O2)CC1 | -15 | 6[16.7 µM]
C[C@H]1CCCCO[C@H](CN(C)C(=O)Nc2ccc(C(F)(F)F)cc2)[C@@H](C)CN([C@@H](C)CO)C(=O)c2cc(NC(=O)NC3CCCCC3)ccc2O1 | -4 | 41[16.7 µM]
COCC#Cc1ccc2c(c1)O[C@H](CN(C)CC1CCCCC1)[C@H](C)CN([C@H](C)CO)S2(=O)=O | 8 | 15[16.7 µM]
COc1ccc(S(=O)(=O)Nc2ccc3c(c2)C(=O)N([C@@H](C)CO)C[C@H](C)[C@H](CN(C)Cc2ccc(C(F)(F)F)cc2)OCCCC[C@H](C)O3)cc1 | 6 | 0[16.7 µM]
COc1ccc(-c2ccc3c(c2)O[C@H](CN(C)CC2CC2)[C@H](C)CN([C@H](C)CO)S3(=O)=O)cc1 | -4 | -7[16.7 µM]
Cc1noc(C)c1S(=O)(=O)N(C)C[C@H]1OCCCC[C@H](C)Oc2ccc(NC(=O)c3ccccc3)cc2C(=O)N([C@H](C)CO)C[C@H]1C | 2 | -5[16.7 µM]
COc1ccc(S(=O)(=O)Nc2ccc3c(c2)C(=O)N([C@H](C)CO)C[C@H](C)[C@@H](CN(C)CC2CC2)OCCCC[C@@H](C)O3)cc1 | 4 | 0[16.7 µM]
Cc1ccc(S(=O)(=O)N(C)C[C@H]2Oc3ccc(NC(=O)NC(C)C)cc3C(=O)N([C@H](C)CO)C[C@@H]2C)cc1 | 2 | -3[16.7 µM]
CC(=O)N(C)C[C@H]1Oc2ncc(-c3ccc(C(=O)N(C)C)cc3)cc2C(=O)N([C@H](C)CO)C[C@H]1C | -1 | 12[16.7 µM]
CO[C@@H]1CN(C)C(=O)c2ccc(NC(C)=O)cc2OC[C@@H](C)N(C(=O)Cc2cccnc2)C[C@H]1C | 17 | -18[16.7 µM]
C[C@@H]1CN([C@H](C)CO)C(=O)c2cc(C3=CCCC3)cnc2O[C@@H]1CN(C)Cc1cccnc1 | -4 | 1[16.7 µM]
C[C@@H]1CCCCO[C@H](CN(C)C(=O)C2CCCCC2)[C@H](C)CN([C@H](C)CO)C(=O)c2cc(NC(=O)CCC(F)(F)F)ccc2O1 | 18 | 22[16.7 µM]
C[C@H](CO)N1C[C@H](C)[C@@H](CN(C)S(=O)(=O)c2cccs2)OCCCC[C@H](C)Oc2ccc(NC(=O)c3ccccc3)cc2C1=O | -13 | -7[16.7 µM]
Cc1noc(C)c1NC(=O)Nc1ccc2c(c1)C(=O)N([C@@H](C)CO)C[C@@H](C)[C@H](CN(C)C(=O)NC1CCCCC1)OCCCC[C@H](C)O2 | 11 | 27[16.7 µM]
CCCC(=O)Nc1ccc2c(c1)C(=O)N(C)[C@@H]1CC[C@@H](CC(=O)NCc3ccccc3F)O[C@H]1CO2 | 13 | 5[16.7 µM]
C[C@H]1CCCCO[C@@H](CN(C)C(=O)Nc2ccc(F)cc2)[C@@H](C)CN([C@@H](C)CO)C(=O)c2cc(NC(=O)c3ccncc3)ccc2O1 | -8 | -17[16.7 µM]
COCC(=O)Nc1ccc2c(c1)C(=O)N(C)[C@@H]1CC[C@H](CC(=O)NCCc3ccccc3)O[C@H]1CO2 | -16 | -18[16.7 µM]
C[C@H](CO)N1C[C@H](C)[C@H](CN(C)C(=O)Nc2ccc3c(c2)OCO3)Oc2cc(C3=CCCC3)ccc2S1(=O)=O | 16 | -24[16.7 µM]
C[C@H]1CN([C@@H](C)CO)C(=O)c2cc(C#CCN(C)C)cnc2O[C@@H]1CN(C)C(=O)CCN1CCCCC1 | 2 | 18[16.7 µM]
C[C@H](CO)N1C[C@H](C)[C@H](CN(C)C(=O)Nc2cccc3ccccc23)Oc2ccc(N(C)C)cc2CC1=O | -4 | 11[16.7 µM]
C[C@H]1CN([C@@H](C)CO)C(=O)c2cc(NC(=O)CCCN(C)C)ccc2O[C@H]1CN(C)Cc1ccncc1 | -13 | -16[16.7 µM]
C[C@H]1CN([C@@H](C)CO)C(=O)c2cc(C3=CCCCC3)cnc2O[C@H]1CN(C)Cc1ccccc1F | -9 | -9[16.7 µM]
C[C@H](CO)N1C[C@H](C)[C@H](CN(C)C(=O)Nc2ccccc2)Oc2ccc(NS(=O)(=O)c3ccc(Cl)cc3)cc2C1=O | 3 | 16[16.7 µM]
COc1ccccc1CN(C)C[C@H]1OCc2cn(nn2)CCCC(=O)N([C@@H](C)CO)C[C@H]1C | -18 | 9[16.7 µM]
CCCNC(=O)Nc1ccc2c(c1)OC[C@H](C)N(C)C[C@H](C)[C@H](OC)CN(C)C2=O | 5 | -4[16.7 µM]
C[C@H]1CN([C@@H](C)CO)C(=O)c2cc(-c3cccc(F)c3)cnc2O[C@@H]1CN(C)CC1CCCC1 | -19 | -4[16.7 µM]
C[C@@H]1CN([C@@H](C)CO)C(=O)c2cc(NC(=O)c3ccccc3)ccc2O[C@@H](C)CCCCO[C@H]1CN(C)Cc1ccc(C(=O)O)cc1 | -1 | 62*[16.7 µM]
C/C=C/c1cnc2c(c1)C(=O)N([C@H](C)CO)C[C@H](C)[C@H](CN(C)CC1CCOCC1)O2 | -4 | 6[16.7 µM]
C[C@H](CO)N1C[C@H](C)[C@H](CN(C)C(=O)Nc2ccc3c(c2)OCO3)OCCCC[C@H](C)Oc2ccc(NC(=O)Nc3cccc4ccccc34)cc2C1=O | -7 | -16[16.7 µM]
C[C@H]1CN([C@@H](C)CO)C(=O)Cc2cc(NC(=O)Nc3ccccc3)ccc2O[C@@H]1CN(C)S(=O)(=O)c1cn(C)cn1 | 5 | -13[16.7 µM]
C[C@@H]1CN([C@H](C)CO)C(=O)c2cc(NC(=O)Nc3cccc4ccccc34)ccc2O[C@@H](C)CCCCO[C@@H]1CN(C)S(=O)(=O)c1ccc(F)cc1 | -12 | 13[16.7 µM]
C[C@@H]1CN([C@@H](C)CO)C(=O)c2cccc(NC(=O)C3CCOCC3)c2O[C@H]1CN(C)C(=O)Nc1ccc2c(c1)OCO2 | -12 | -9[16.7 µM]
Cc1ccc(S(=O)(=O)Nc2ccc3c(c2)C(=O)N([C@H](C)CO)C[C@H](C)[C@H](CN(C)Cc2ccc(Cl)c(Cl)c2)OCCCC[C@@H](C)O3)cc1 | -9 | -10[16.7 µM]
CC(C)CC#Cc1ccc2c(c1)O[C@@H](CN(C)Cc1cccc(F)c1)[C@H](C)CN([C@H](C)CO)S2(=O)=O | 8 | 16[16.7 µM]
C[C@@H]1CN([C@@H](C)CO)C(=O)c2cc(NC(=O)Nc3cccc4ccccc34)ccc2O[C@@H](C)CCCCO[C@@H]1CN(C)Cc1ccc(C(F)(F)F)cc1 | -12 | 9[16.7 µM]
C[C@H](CO)N1C[C@H](C)[C@@H](CN(C)C(=O)Nc2ccc(F)cc2)OCCCC[C@H](C)Oc2ccc(NC(=O)Nc3ccc(F)cc3)cc2C1=O | -2 | -9[16.7 µM]
O=C1O[C@H](c2ccccc2)[C@H](c2ccccc2)N2[C@H]1[C@@H](C(=O)N1CCN(c3ncccn3)CC1)[C@]1(C(=O)Nc3ccc(C#CC4(O)CCCCCC4)cc31)[C@H]2c1ccc(OCCO)cc1 | 0 | -21[16.7 µM]
O=C(C[C@@H]1C[C@H]2c3cc(NC(=O)C4CCC4)ccc3O[C@H]2[C@H](CO)O1)NCc1cc(F)ccc1F | 0 | -4[16.7 µM]
C[C@H](CO)N1C[C@H](C)[C@H](CN(C)Cc2ccc3c(c2)OCO3)Oc2ccc(NC(=O)CCN3CCOCC3)cc2C1=O | -7 | 23[16.7 µM]
COc1ccc(-c2cn(CC[C@@H]3CC[C@H](NC(=O)c4cnccn4)[C@@H](CO)O3)nn2)cc1 | -11 | 2[16.7 µM]
COc1ccc(CNC(=O)C[C@H]2CC[C@@H]3[C@@H](COc4ccc(NC(C)=O)cc4C(=O)N3C)O2)cc1 | -10 | -6[16.7 µM]

Ordered by count of non-hydrogen atoms (lowest first): part of the list above
SMILES | UUG fidelity | Env fusion inh
COc1ccc(CNC(=O)C[C@H]2CC[C@@H]3[C@@H](COc4ccc(NC(C)=O)cc4C(=O)N3C)O2)cc1 | -10 | -6[16.7 µM]
C[C@H]1CN([C@@H](C)CO)C(=O)Cc2cc(NC(=O)Nc3ccccc3)ccc2O[C@@H]1CN(C)S(=O)(=O)c1cn(C)cn1 | 5 | -13[16.7 µM]
Cc1ccc(S(=O)(=O)Nc2ccc3c(c2)C(=O)N([C@H](C)CO)C[C@H](C)[C@H](CN(C)Cc2ccc(Cl)c(Cl)c2)OCCCC[C@@H](C)O3)cc1 | -9 | -10[16.7 µM]
C[C@H](CO)N1C[C@H](C)[C@@H](CN(C)C(=O)Nc2ccc(F)cc2)OCCCC[C@H](C)Oc2ccc(NC(=O)Nc3ccc(F)cc3)cc2C1=O | -2 | -9[16.7 µM]
C[C@@H]1CN([C@H](C)CO)C(=O)c2cc(NC(=O)Nc3cccc4ccccc34)ccc2O[C@@H](C)CCCCO[C@@H]1CN(C)S(=O)(=O)c1ccc(F)cc1 | -12 | 13[16.7 µM]
C[C@@H]1CN([C@@H](C)CO)C(=O)c2cc(NC(=O)Nc3cccc4ccccc34)ccc2O[C@@H](C)CCCCO[C@@H]1CN(C)Cc1ccc(C(F)(F)F)cc1 | -12 | 9[16.7 µM]
O=C1O[C@H](c2ccccc2)[C@H](c2ccccc2)N2[C@H]1[C@@H](C(=O)N1CCN(c3ncccn3)CC1)[C@]1(C(=O)Nc3ccc(C#CC4(O)CCCCCC4)cc31)[C@H]2c1ccc(OCCO)cc1 | 0 | -21[16.7 µM]

(cont.)
SMILES | UUG fidelity | Env fusion inh
C[C@@H]1CN([C@@H](C)CO)C(=O)c2cccc(NC(=O)Nc3ccc4c(c3)OCO4)c2O[C@H]1CN(C)S(=O)(=O)c1ccccc1 | 8 | -20[16.7 µM]
C[C@@H]1CN([C@H](C)CO)C(=O)c2cc(-c3cccc(F)c3)cnc2O[C@@H]1CN(C)C(=O)c1cnccn1 | -6 | 13[16.7 µM]
C[C@H]1CCCCO[C@@H](CN(C)C(=O)Nc2ccc3c(c2)OCO3)[C@@H](C)CN([C@@H](C)CO)C(=O)c2cc(NS(=O)(=O)c3ccc(F)cc3)ccc2O1 | -8 | 1[16.7 µM]
C[C@H]1CN([C@@H](C)CO)C(=O)c2cc(-c3ccc(C#N)cc3)cnc2O[C@@H]1CN(C)CC1CCOCC1 | -7 | -21[16.7 µM]
CCCNC(=O)N(C)C[C@@H]1Oc2ncc(C#CCC3CCCC3)cc2C(=O)N([C@H](C)CO)C[C@@H]1C | 12 | 7[16.7 µM]
C[C@@H]1CCCCO[C@H](CN(C)C(=O)NC2CCCCC2)[C@H](C)CN([C@H](C)CO)C(=O)c2cc(NS(=O)(=O)c3ccc(F)cc3)ccc2O1 | 14 | -24[16.7 µM]
C[C@H](CO)N1C[C@H](C)[C@@H](CN(C)S(=O)(=O)c2ccccc2)OCCCC[C@H](C)Oc2ccc(NS(=O)(=O)c3cccs3)cc2C1=O | -1 | -21[16.7 µM]
C[C@@H]1CCCCO[C@H](CN(C)Cc2ccc(C(=O)O)cc2)[C@H](C)CN([C@@H](C)CO)C(=O)c2cc(NC(=O)Nc3ccc(F)cc3)ccc2O1 | 1 | -10[16.7 µM]
CO[C@H]1CN(C)C(=O)c2ccc(NC(C)=O)cc2OC[C@@H](C)N(C(=O)CC2CC2)C[C@H]1C | -14 | -2[16.7 µM]
COc1ccc(CN(C)C[C@H]2Oc3ccc(NC(=O)CCN4CCOCC4)cc3C(=O)N([C@@H](C)CO)C[C@@H]2C)cc1 | 10 | -11[16.7 µM]
C[C@H]1CN([C@@H](C)CO)S(=O)(=O)c2ccc(C3=CCCC3)cc2O[C@H]1CN(C)C(=O)Cc1ccncc1 | 5 | -16[16.7 µM]
COc1ccc(NC(=O)N(C)C[C@@H]2Oc3ccc(NC(=O)CCC(F)(F)F)cc3CC(=O)N([C@@H](C)CO)C[C@@H]2C)cc1 | 0 | -1[16.7 µM]
C[C@@H]1CN([C@@H](C)CO)C(=O)c2cc(N(C)C)ccc2O[C@@H](C)CCCCO[C@H]1CN(C)Cc1ccc(C(F)(F)F)cc1 | -2 | -2[16.7 µM]
CCCN(C)C[C@@H]1Oc2cc(C#Cc3ccncc3)ccc2S(=O)(=O)N([C@@H](C)CO)C[C@@H]1C | -10 | -19[16.7 µM]
C[C@H]1CN([C@@H](C)CO)C(=O)c2cccc(NC(=O)C3CCCCC3)c2O[C@@H]1CN(C)CC1CCCCC1 | 3 | 9[16.7 µM]
